Anaer choline gr: choline-fed anaerobic bacterial growth inhibition; Gram-negative bacterium anaerobic choline minimal medium, absorbance growth; stronger effect = lower value; many inactives read as strong as hits in the columns shown; calls only; 55,000 compounds, 0.2% hits;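 active = growth z-score on choline under -2 at 7 or 20 h with little or no fall on glycerol, limits in tiers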;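 also: stock transfer was 300 nL into about 50 µL; the organism is E. coli; final concentration not given here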
Anaer choline gr early: second read-out of Anaer choline gr, no call of its own (marks repeat the call); z-score; measured here: choline growth z-score, timepoint 1;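 score of optical density at 7 h as mean of two plates; lower means less growth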
Active calls of the source: *; i = inactive; + = active, no number. These rows are one share of the data; count on the stated rates, not on these rows.

structure | Anaer choline gr | Anaer choline gr early
COc1ccc(-n2nc(C(=O)Nc3ccccc3OC)c(=O)n(C)c2=O)cc1 | i | 2.2
COc1ccccc1Oc1ccnc(-c2cccc(C(=O)Nc3ccc(Cl)cc3)c2)n1 | i | 0.03
CCCNC(=O)c1ccc(-c2cc(N3CCCC3)ncn2)cc1 | i | -1.2
CCOc1ccc(C(=O)NCCc2sc3nc(-c4ccc(Cl)cc4)nn3c2C)cc1OCC | i | 0.37
O=C(CCC(=O)N1CCc2cc(S(=O)(=O)N3CCCC3)ccc21)N1CCOCC1 | i | -0.5
O=S(=O)(c1ccc(-c2nnc(C3CC3)o2)o1)N1CCCCCC1 | i | -0.47
C=CCSc1nnc2c3ccccc3nc(-c3ccccc3)n12 | i | 1.6
Cn1c(=O)n(CCN2CCOCC2)c(=O)c2cnc(-c3ccncc3)nc21 | i | -0.7

Gathered by group, those above with sulfur (4)
structure | Anaer choline gr | Anaer choline gr early
CCOc1ccc(C(=O)NCCc2sc3nc(-c4ccc(Cl)cc4)nn3c2C)cc1OCC | i | 0.37
O=C(CCC(=O)N1CCc2cc(S(=O)(=O)N3CCCC3)ccc21)N1CCOCC1 | i | -0.5
O=S(=O)(c1ccc(-c2nnc(C3CC3)o2)o1)N1CCCCCC1 | i | -0.47
C=CCSc1nnc2c3ccccc3nc(-c3ccccc3)n12 | i | 1.6

Continued.
structure | Anaer choline gr | Anaer choline gr early
COCc1nc2cccnc2n1C1CCN(C(=O)Nc2ccsc2C(=O)OC)CC1 | i | 0.17
CC(C)n1nnc2cc(S(=O)(=O)N3CCCC3C(=O)NCCN(C)C3CCCCC3)ccc21 (stereo not given) | i | -0.71
COc1ccc(N)cc1CN1CCn2c(nc3ccccc32)C1 | i | -0.14
CCOCC(O)COc1ccc(NC(=O)CC[S+](C)C)cc1 (stereo not given) | i | -0.19
COc1ccc(N2CCN(C(=O)c3nc4ccccc4nc3N3CCCC3)CC2)cc1 | i | -0.76
COc1ccc(-n2nc(-c3ccccc3)cc2Nc2nc(-c3ccc4c(c3)NC(=O)CO4)cs2)cc1 | i | -1.5
Cc1nn2c(=O)cc(COC(=O)C3CCCCC3)nc2s1 | i | 0.01
CCS(=O)(=O)Nc1ccc(C2(C(=O)NCCC(C)C)CCC2)cc1 | i | -0.32
Cl/C(=C\n1cncn1)c1ccc(Cl)cc1Cl | i | 0.25
CCC(C(=O)NC1CCN(Cc2ccccc2)CC1)N1CCN(Cc2ccc(F)cc2)C(=O)C1=O (stereo not given) | i | -1.3
Cc1ccc(C)c(NC(=O)c2c(-c3ccc(Br)cc3)noc2C)c1 | i | -0.38
CCOC(=O)C1CCC(CNC(=O)Nc2ccc3nc(N4CCN(C)CC4)cc(C)c3c2)CC1 (stereo not given) | i | -0.07
CC(=O)N1CCN(c2cc(N3CCOCC3)nc(C)n2)CC1 | i | 1.1
Cc1cc(N2CCOCC2)nc(N2CCN(C(=O)C(C)Oc3ccccc3)CC2)n1 (stereo not given) | i | -0.37
CCN1CCN(c2cc(=O)n3c(-c4ccc(C)cc4)csc3n2)CC1 | i | 0.64
O=C(Nc1ccc(N2CCn3c(nc4cc(Cl)ccc43)C2)cc1)NC1CCCCC1 | i | 0.43
COC(=O)c1ccc2c(=O)n(CCCCCC(=O)NC3CCN(Cc4ccccc4)CC3)c(=O)[nH]c2c1 | i | 0.26
Cc1ccc(C)n1-c1nnc(N2CCCC(C(=O)NC3CC3)C2)s1 (stereo not given) | i | 0.63
CN(C)C(=O)c1ccc2c(c1)nnn2CCNC(=O)NC1CCCCC1 | i | 0.01
Cc1cccc(N2CCN(C(=O)c3ccc4c(c3)CCN4S(=O)(=O)c3ccccc3)CC2)c1C | i | -0.64
O=C(NCCc1ccccc1)c1ccc(-c2noc(C3CCN(C(=O)c4ccccc4)CC3)n2)cc1 | i | 0.23
CCC(CC)(CC(=O)Nc1cccc(/C=C/c2nc(C3CCC3)cs2)c1)C(=O)O | i | 0.17
COc1ccc(C2CC(=O)C3=C(C2)Nc2onc(C)c2C3c2ccc(OC)c(O)c2)cc1 (stereo not given) | i | 0.49
O=C(O)c1cc(NS(=O)(=O)c2ccc3c(c2)CCCC3)cnc1N1CCOCC1 | i | 0.06
CC(C)CCNC(=O)C1(c2ccc(NS(C)(=O)=O)cc2)CCC1 | i | -0.08
Cn1c(=O)c(N2CCC(C(=O)NCc3ccc(Cl)cc3)CC2)nc2ccccc21 | i | -0.7
CN(CCNC(=O)c1cc2c(-c3ccc(Cl)cc3)nn(C)c2s1)Cc1ccccc1 | i | 2.3
CN(C(=O)CSc1nnc(-c2cc3ccccc3n2C)o1)c1ccc(F)cc1 | i | 0.63
C=CCN(Cc1nc(-c2ccc(C)cc2)no1)C(=O)Nc1cccc(Cl)c1 | i | 1.2
O=C(c1ccc2noc(-c3ccc(F)cc3)c2c1)N1CCN(c2cccc(Cl)c2)CC1 | i | 1.4
O=C(C1CCN(c2cncnc2N2CCOCC2)CC1)N1CCC(N2CCCCC2)CC1 | i | 0.73
Fc1ccccc1CNc1ncnc2c(-c3ccccc3)noc12 | i | 1.2
CCOC(=O)c1cc(C)n(CC2CCC(C(=O)NCc3ccccc3OC)CC2)c1C (stereo not given) | i | 0.46
CC(=O)Nc1ccc(N2C(=O)c3cc(C)nn3CC2(C)C(=O)NCc2ccc(C)cc2)cc1 (stereo not given) | i | -1.4
CCOC(=O)c1c(C)[nH]c(C(=O)N2CCCC(C(=O)NCCc3c[nH]c4ccccc34)C2)c1C (stereo not given) | i | -0.76
Cc1cc(N2C(=O)c3ccccc3C2C(=O)NCCC(C)C)ccc1Br (stereo not given) | i | 1.1
O=C(Nc1ccccc1)c1ccc(C2Nc3ccccc3S(=O)(=O)N2)cc1 (stereo not given) | i | 1.7
Clc1ccc(-c2noc3ncnc(NCCCN4CCOCC4)c23)cc1 | i | 0.88
CCOC(=O)N1CCN(Cc2nc(-c3ccc(N4CCCC(C)C4)nc3)no2)CC1 (stereo not given) | i | -0.14
COc1ccc2c(c1)c(C1=C(c3c[nH]c4ccccc34)C(=O)NC1=O)cn2CCCN(C)C | i | -0.92
C[N+](C)(C)CC=O | i | 0.84
COc1cc2c(=O)n(Cc3ccc(C(=O)NC4CC4)cc3)c(=O)n(CC(=O)NC3CCCCC3)c2cc1OC | i | 0.22
CC(C)Cc1nn2c(=O)cc(CN(C)c3ccccc3)nc2s1 | i | 1.1
O=C(Nc1ccc(C(F)(F)F)cn1)N1CCN(c2ncccc2C(F)(F)F)CC1 | i | 0.21
Cc1ccc(-c2noc(CCn3nc(-c4ccc5c(c4)OCO5)ccc3=O)n2)cc1 | i | 1.4
CCC(=O)Nc1nc2cc(NC(=O)CN3C(=O)COc4ccc(C(C)(C)C)cc43)ccc2s1 | i | 0.67
CC(C)N1CCc2c(sc(NC(=O)C3CC3)c2-c2nc3ccccc3s2)C1 | + | -3.7*
Cc1ccc(C(=O)Oc2cc(-c3ccc4c(c3)OCO4)cc(=O)c3c(C)oc(C)c23)cc1 | i | 0.31
CCOC(=O)c1c(NC(=O)C2Cc3ccc(C)cc3C(=O)O2)sc2c1CCC(C)C2 (stereo not given) | i | 0.5
COc1cccc(NC(=O)Cn2nc(N3CCN(c4ccccc4OC)CC3)ccc2=O)c1 | i | -0.51
CC(C)c1cc(C2CCCN2Cc2ccc(Br)cc2)no1 (stereo not given) | i | 1.1
O=C(NC1CCCC1)c1cccc(Nc2ccc(-c3cccc(F)c3)nn2)c1 | i | 0.73
CCc1cccc(NS(=O)(=O)c2cc(-c3nc(C)c(C)s3)sc2C)c1 | i | 2
CCCN1C=C(OC(=O)C(C)C)c2ccccc2S1(=O)=O | i | 0.99
CCCn1c(=O)c2ccc(C(=O)NC(C)C)cc2n2c(SCC(=O)c3ccccc3)nnc12 | i | 0
Cc1ccc(CNC(=O)c2cnc3sc(N4CCCCC4)nn3c2=O)cc1 | i | -0.88

More compounds:
structure | Anaer choline gr | Anaer choline gr early
O=C(c1csc(S(=O)(=O)N2CCCC2)c1)N1CCCC1 | i | -0.54
Cc1ccc(NS(=O)(=O)c2c(C)sc(C)c2-c2cc(C(F)(F)F)on2)cc1 | i | -1.2
Cc1ccccc1-c1nc(CN2C(=O)COc3ccccc32)no1 | i | 1
CCc1cc(Sc2nnc(NC(=O)Nc3ccc(F)cc3)s2)n2ncnc2n1 | i | -2.4
CC(C)C[C@H](NC(=O)C1OC1C(=O)O)C(=O)NCCCCN=C(N)N (stereo not given in full) | i | -0.44
CN(Cc1ccccc1)C(=O)c1cccc(Nc2ncc(-c3cccc(F)c3)cn2)c1 | i | 0.78
COc1cc(OC)c(NC(=O)C2CCCN(S(=O)(=O)c3cc4c(cc3Cl)NC(=O)CO4)C2)cc1Cl (stereo not given) | i | 0.56
O=C(CC1CCN(C(=O)c2ccc3oc(-c4ccccc4)nc3c2)CC1)NCc1cccnc1 | i | -0.27
CC1=C(C(=O)Nc2cc(C(=O)NCCc3ccc(S(N)(=O)=O)cc3)ccc2C)SCCO1 | i | -0.8
Cc1ccc2nc3c(cc2c1)CCN3S(=O)(=O)c1ccc(F)cc1 | i | 0.73
CC1CCN(C(=O)CSc2nnc(Cc3cccn3C)n2CCc2ccccc2)CC1 | i | 0.33
COc1ccc(NC2(c3nnnn3-c3ccc(OC)c(OC)c3)CCCC2)cc1 | i | -0.32
COCCCNC(=O)c1cccc(Nc2ncc(-c3cccc(C)c3)cn2)c1 | i | 0.79
Cc1[nH]c(=O)[nH]c(=O)c1S(=O)(=O)NC(C)C | i | 0.55
Cc1cccn2c(=O)c(C(=O)N3CCCC3)cnc12 | i | -1.5
COc1ccc(OC)c(-c2csc(-c3nnn(-c4ccccc4)c3N)n2)c1 | i | -0.59
Nc1nc2c(c(=O)[nH]1)C(c1ccc(F)cc1)CC(=O)N2 (stereo not given) | i | 0.15
O=C(Nc1ccc(N2CCN(c3ccccn3)CC2)c(C(=O)O)c1)c1ccc(Br)cc1 | i | 0.39
O=C(O)CCCCCCC1C(=O)N(Cc2ccccc2)C(=O)N1NCC(O)C1CCCCC1 (stereo not given) | i | -0.23
CN(Cc1ccccc1)C(=O)C1CCN(S(=O)(=O)c2ccc3c(c2)NC(=O)CS3)CC1 | i | -0.65
Cc1ccc2c(c1)sc1nc(C)c(S(=O)(=O)Nc3ccc(Br)c(C)c3)c(=O)n12 | i | 1.6
O=S1(=O)c2ccccc2NC(c2ccc(F)c(F)c2)N1Cc1cccc(Br)c1 (stereo not given) | i | -0.33
Cc1cccc(N2CCN(C(=O)c3ccc(C)c(-n4nnc5cccnc54)c3)CC2C)c1 (stereo not given) | i | -0.92
CCCCCn1c(CN2CCCC2)nc2ccccc21 | i | -0.89
Cc1nc(SCc2nc(-c3ccc(OC(C)C)cc3)oc2C)[nH]c(=O)c1C | i | 1.2
Cc1ccc(Cl)cc1N1CCN(C(=O)c2[nH]c(C)c(S(=O)(=O)N3CCCC3)c2C)CC1 | i | 0.9
CC(C)C(=O)Nc1ccc2nc(N3CCN(CC(=O)NC(C)(C)C)CC3)cc(C(=O)O)c2c1 | i | -0.54
O=C(NC1CCCc2ccccc21)c1cccc(Nc2ccnc(-c3ccccc3)n2)c1 (stereo not given) | i | 1.5
O=c1[nH]c2ccc(S(=O)(=O)N3CCCc4ccccc43)cc2[nH]1 | i | -0.31
O=C(c1cnc2ccc(F)cc2c1Nc1ccccc1F)N1CCCCC1 | i | 0.42
CS(=O)(=O)N1CCN(c2ccc(=O)n(-c3ccc(Cl)cc3)n2)CC1 | i | 0.2
Cc1cccc2cc3c(nc12)N(S(=O)(=O)c1ccc2c(c1)OCO2)CC3 | i | 0.56

Reprinted at random: 3 compounds from above.
structure | Anaer choline gr | Anaer choline gr early
Cc1nc(SCc2nc(-c3ccc(OC(C)C)cc3)oc2C)[nH]c(=O)c1C | i | 1.2
O=c1[nH]c2ccc(S(=O)(=O)N3CCCc4ccccc43)cc2[nH]1 | i | -0.31
O=C(c1cnc2ccc(F)cc2c1Nc1ccccc1F)N1CCCCC1 | i | 0.42

Further compounds
structure | Anaer choline gr | Anaer choline gr early
O=C(NC1CCCCC1)C1CCN(c2cncnc2N2CCCCC2)CC1 | i | 1.2
COCCn1c(SCc2nc(-c3ccc(C)cc3)no2)nc2cc3c(cc2c1=O)OCO3 | i | 0.26
C=CCn1c(SCc2ccc(F)cc2)nc2c(-c3ccccc3)cn(C)c2c1=O | i | 1.4
CCOc1ccc(NC(=O)c2nn(-c3ccc(OC)cc3)c(=O)n(C)c2=O)cc1 | i | 0.8
Cc1cc(-n2nc(C)cc2C)n2nc(C(F)(F)F)c(-c3ccc(Cl)cc3)c2n1 | i | 1.5
CCCn1c(=O)c2sccc2n2c(CCCC(=O)NCCc3ccc(S(N)(=O)=O)cc3)nnc12 | i | -0.06
O=C(c1cccc(-c2cc(NC3CCCCC3)ncn2)c1)N1CCN(Cc2ccccc2)CC1 | i | -0.3
CCOc1ccc(-c2c(C)nn3c(C)c(C(=O)Nc4ccc(OC)c(OC)c4)cnc23)cc1OCC | i | -0.47
CC(C)(C)c1ccc(C(CNC(=O)c2cc(-c3ccc4c(c3)OCCO4)on2)N2CCCC2)cc1 (stereo not given) | i | 0.89
CCn1c(=O)n(CC)c2cc(N3CCCCC3)c(NC(=O)Nc3ccsc3C(=O)OC)cc21 | i | -0.73
Cc1cc(NS(=O)(=O)c2ccc(N)cc2)no1 | i | 0.06
CC(C)NC(=O)C1=CCN(C(=O)NC(C)(C)C)CC1 | i | -0.15
Cc1ccc(-c2c(C(F)(F)F)nn3c(NCCCN4CCOCC4)cc(C)nc23)cc1 | i | -1.1

From PubChem
